# Compound activity deposited in PubChem by several laboratories.
# Mtb betalactam = beta-lactam sensitization of Mtb H37Rv; inhibition, % at 25 µM; AID 434955; 330,000 compounds, 0.27% hits; M. tuberculosis H37Rv growth with meropenem, percent inhibition; hits of this screen are not shown here;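 active = about 74% or more and at least 40 points above the plate without the antibiotic, then above 30% in a dose series; inconclusive = first-round hits that could not be retested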;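 note: growth measured after seven days incubation then overnight dye step; 0% = bacteria only wells and 100% = bacteria with antibiotic; twin plates without the antibiotic show which effects depend on it; some results filed as inactive read as strong as hits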
# RecA splice inh = blocks M. tuberculosis RecA intein splicing. P9WHJ3. cell-free RecA intein splicing, fluorescence. inhibition, %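 (about 9 µM by stock and volumes)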. 290,000 compounds, 0.75% hits. AID 2221; in the data active = inhibition above about 30%; inconclusive = no clear call, values can overlap the other calls;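 note: 0% = vehicle wells and 100% = reference inhibitor control wells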
# Target sequence (P9WHJ3 whole entry, looked up, canonical isoform): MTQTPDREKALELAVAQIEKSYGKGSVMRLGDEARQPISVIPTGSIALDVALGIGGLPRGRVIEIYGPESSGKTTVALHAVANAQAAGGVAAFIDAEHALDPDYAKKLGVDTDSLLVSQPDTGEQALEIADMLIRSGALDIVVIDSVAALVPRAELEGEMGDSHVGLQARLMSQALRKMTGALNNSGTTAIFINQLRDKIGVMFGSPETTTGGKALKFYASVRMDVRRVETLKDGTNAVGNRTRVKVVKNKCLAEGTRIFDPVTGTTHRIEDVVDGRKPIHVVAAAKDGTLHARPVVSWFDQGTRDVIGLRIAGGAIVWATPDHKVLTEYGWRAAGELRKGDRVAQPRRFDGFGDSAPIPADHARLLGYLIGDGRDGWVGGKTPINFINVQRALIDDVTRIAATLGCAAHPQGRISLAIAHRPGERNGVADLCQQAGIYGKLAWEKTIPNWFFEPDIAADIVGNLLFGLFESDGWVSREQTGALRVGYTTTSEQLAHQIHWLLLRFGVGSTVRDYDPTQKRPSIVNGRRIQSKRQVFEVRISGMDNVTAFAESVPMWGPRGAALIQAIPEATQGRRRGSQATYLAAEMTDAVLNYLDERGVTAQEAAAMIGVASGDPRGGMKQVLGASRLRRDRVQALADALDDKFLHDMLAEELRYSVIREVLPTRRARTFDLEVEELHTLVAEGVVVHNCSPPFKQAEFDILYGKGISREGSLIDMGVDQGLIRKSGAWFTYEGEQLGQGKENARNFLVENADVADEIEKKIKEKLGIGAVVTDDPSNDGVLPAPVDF
# Arbovirus inh = arbovirus infection inhibition. AID 1251. inhibition, % at 10 µM. 200,000 compounds, 0.37% hits. arbovirus infection cell-based antiviral screen;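 active = inhibition from about 30%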;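 note: bluetongue infection of BSR cells; cell survival read as ATP light after 72 h; 0% = infected wells without compound and 100% = uninfected wells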
# Mtb H37Rv = M. tuberculosis H37Rv growth inhibitors, H37Rv strain (AID 1626) | M. tuberculosis H37Rv growth inhibition; higher % means a stronger effect | one-dose inhibition, % at 10 µM; IC50 in µM for titrated hits | 220,000 compounds, 0.95% hits;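 active = confirmed in a dose series; inconclusive = inhibition above 80% but not taken into the dose series; inactive = below 80% or under 30% at every dose of the series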;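 note: bacteria incubated seven days before Alamar blue readout; 0% = bacteria only wells and 100% = bacteria with antibiotic wells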
# YopH PTP inh = inhibitors of Yersinia enterocolitica YopH tyrosine phosphatase. fluorescence Ex485/Em525. AID 898. inhibition, %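 (about 10 µM by stock and volumes)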. 140,000 compounds, 0.16% hits;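 active = inhibition of 50% or more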;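 note: controls were vehicle for no effect and minimum signal wells for full effect; inactives centre near -20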
# Numbers without * were called inactive; ? = inconclusive; / = no result given.
SMILES,Mtb betalactam,RecA splice inh,Arbovirus inh,Mtb H37Rv,YopH PTP inh
Cc1cccc(/C=N/NC(=O)C(C)Nc2cccc3ccccc23)n1 (stereo not given),2.8,74.7*,-26.9,-2.1%,-14.4
C=CCSc1nc2sc3c(c2c(=O)n1-c1ccc(C)cc1)CCN(C)C3,68.1,5.6,/,/,/
CCOC(=O)CN1N=C(/C=C/c2ccc(C)cc2)CCC1=O,-12.3,-1.0,-5.5,0.3%,-31.8
CN(CC(=O)O/N=C(\N)c1ccc([N+](=O)[O-])cc1)S(=O)(=O)c1ccccc1,-7.2,-0.7,0.0,3.5%,-12.1
CC1SC(c2ccc(Cl)cc2Cl)NC1=O (stereo not given),-15.7,3.6,0.6,-2.3%,-13.1
COC(=O)Cc1ccc(NC(=S)NC2CC2)cc1,-7.7,-2.3,/,2.1%,/
COC(=O)c1ccc(NS(=O)(=O)c2cc3c4c(c2)CCC(=O)N4CCC3)cc1,-13.1,-2.0,/,/,/
FC(F)Oc1ccc(C2N=C(c3ccccc3)NO2)cc1 (stereo not given),6.2,-0.5,/,/,/
CCOc1cc(C(=O)N2CCC(CC3CC(c4cccc(Br)c4)=NO3)(C(=O)NCC3CCCCC3)CC2)cc(OCC)c1OCC (stereo not given),1.4,-0.4,/,/,/
O=C(NCCCn1ccnc1)c1cc(S(=O)(=O)N2CCOCC2)ccc1F,2.6,/,18.7,-6.6%,/
COc1cccc(N2CCN(Cc3ccco3)CC2)c1,-4.0,-1.4,/,/,/
CCOC(=O)c1cc(-c2ccc(OC)cc2)n[nH]1,-2.7,2.4,/,4.8%,/
COc1ccc(-n2ncc3c(=O)n(CC(C)=O)cnc32)cc1,-2.1,-1.0,/,/,/
CC(=O)c1cccc(CN2CCN(C3CCCC3)C(CCO)C2)c1 (stereo not given),-5.1,-7.9,0.0,-7.7%,/
CCC(C)NC(=O)C1CCC(CNS(=O)(=O)c2ccc3c(c2)N(C(C)=O)CCO3)CC1 (stereo not given),2.5,-0.8,/,/,/
CC(C)(C)c1cc(=O)[nH]c(SCc2ccccc2)n1,10.5,4.8,18.1,-2.9%,/
CSc1ncc(CN2CCN(CCC(C)C)C(CCO)C2)cn1 (stereo not given),-10.4,-1.5,-10.6,-2.6%,/
CC(C)[C@H]1COCCS(=O)(=O)N1Cc1ccccc1F,-14.4,-3.5,/,0.5%,/
CCOc1ccc(N(CC(=O)Nc2cc(OC)cc(OC)c2)S(=O)(=O)c2c(C)[nH]c(=O)[nH]c2=O)cc1,-6.1,4.7,/,/,/
COC(=O)c1ccc(OCc2nn[nH]n2)cc1,-4.8,2.3,/,/,/
COC(=O)C1=C(O)/C(=C\c2ccc(CNS(=O)(=O)c3ccc(Cl)cc3)o2)N=C1C,1.7,-3.6,-0.8,8.9%,-18.2
CCOC(=O)C1CCN(C(=O)c2oc3ccc4c(c3c2C)C(O)CC2(CCCCC2)O4)CC1 (stereo not given),11.8,1.1,/,/,/
Cc1sc(NC(=O)c2ccco2)c(CN2CCN(Cc3ccccc3)CC2)c1C,3.4,2.4,2.2,12.0%,/
C=CCc1c(OC(C)=O)c2ccccc2n(C)c1=O,3.1,-9.7,3.7,8.0%,-25.2
CCNC(=S)N1CCN(CCN=CC2=C(O)CC(c3cccs3)CC2=O)CC1 (stereo not given),6.6,4.6,2.9,-6.8%,2.3
COc1ccc(NC(=O)CSc2nc3c(sc4ccccc43)c(=O)n2CCCN2CCCC2)cc1,4.4,-2.4,/,/,/
CC(C)Cc1nn2c(=O)cc(CSCC(=O)Nc3ccccc3F)nc2s1,-8.7,-6.5,/,/,/
Cc1ccc(-n2c(SCC(=O)N3CCCCC3)nc(O)c(Cc3ccccc3)c2=O)cc1,6.7,1.9,/,/,/
CCCC(=O)Nc1cc(-c2cn3cccnc3n2)ccc1OC,/,-0.4,-2.9,-3.2%,-39.5
C#CCSc1nnc(-c2ccc(O)cc2)o1,10.5,/,9.8,/,/
COc1cc(-c2ncc3ccccn23)cc(OC)c1OC,-0.6,-6.4,-3.8,/,-8.0
CC12CN(C(=O)c3ccccc3Br)CC(C)(CN(C(=O)c3ccccc3Br)C1)C2=O,-8.0,2.6,/,-2.9%,/
COc1ccc(Nc2nc(Cl)nc(Nc3ccc(OC)cc3OC)n2)c(OC)c1,-5.2,-3.3,-9.2,-0.7%,/
COc1ccc(CC2(CO)CCN(C(=O)NCc3ccccc3)CC2)cc1,-10.0,5.8,12.0,9.0%,/
COCCn1c(-c2cccs2)nc2c(c(=O)c3ccccc3n2C)c1=O,/,/,-4.4,7.6%,-52.4
O=C(c1ccco1)N1N=C(c2ccncc2)CC1(O)C(F)(F)F (stereo not given),-10.3,-0.5,5.6,-1.4%,/
CCN1C(=O)c2cccc3c(NC(=O)C(C)(C)C)ccc1c23,-4.4,-0.8,-3.5,2.0%,3.0
Cc1ccc(C(=O)OCC(=O)N2CCc3ccccc32)cc1,-3.5,-3.2,4.9,5.5%,-102.0
O=C(c1ccccc1)n1ccc2ccccc21,-0.3,2.3,1.1,0.9%,-24.9
Cc1cc(C)n2nc(SCc3cc(=O)oc4cc(C)c(C)cc34)nc2n1,-2.4,-0.4,2.2,/,-18.9
CCCC(=O)Nc1cc2c3c(c1)CC(=O)N3CCC2,-3.5,8.1,/,/,/
O=C(Cn1nnc(-c2cc(C(F)(F)F)cc(C(F)(F)F)c2)n1)NNC(=S)Nc1ccc(Cl)cc1,-6.8,-3.0,/,-7.2%,/
O=C(c1nc2ccccn2c1CN1CCN(c2ccccc2O)CC1)N1CCCC1,-4.7,-6.6,-3.1,0.2%,/
O=C(Cn1c(=O)sc2ccccc21)NCc1ccco1,-3.3,2.3,1.3,8.6%,-47.5
COc1ccc(N2C(N)=NC(N)=NC23CCCC3)cc1,1.9,-1.5,2.5,-6.4%,-23.6
CC(Oc1ccc(Cl)cc1Cl)C(=O)Nc1cccnc1 (stereo not given),61.3,/,-3.4,12.6%,-20.4
CCc1c(C)nc2nc(SCc3ccccc3)[nH]n2c1=O,2.3,-2.9,/,/,/
COc1ccc([C@@H]2C[C@H]3CN(Cc4ccccc4OC)C(=O)[C@]34CCCN24)cc1C,0.4,3.8,-1.6,-14.5%,/

# Grouped by structure: the entries above with a CF3 group.
SMILES,Mtb betalactam,RecA splice inh,Arbovirus inh,Mtb H37Rv,YopH PTP inh
O=C(c1ccco1)N1N=C(c2ccncc2)CC1(O)C(F)(F)F (stereo not given),-10.3,-0.5,5.6,-1.4%,/
O=C(Cn1nnc(-c2cc(C(F)(F)F)cc(C(F)(F)F)c2)n1)NNC(=S)Nc1ccc(Cl)cc1,-6.8,-3.0,/,-7.2%,/

# Next part
SMILES,Mtb betalactam,RecA splice inh,Arbovirus inh,Mtb H37Rv,YopH PTP inh
CCOC(=O)/C(C#N)=C/c1cccc([N+](=O)[O-])c1,-6.1,1.0,/,1.7%,/
CCCCCc1ccc(-c2cn(CCCOCc3ccccc3)nn2)cc1,89.3,1.8,/,/,/
CCCCOc1ccc(N2C(=O)CC(N(O)c3ccccc3)C2=O)cc1 (stereo not given),97.2,1.2,8.5,?,25.9
Nc1nc(N2CCN(c3ccccc3)CC2)n[nH]1,-4.8,-2.7,0.4,1.2%,/
OCCNCCOCCOc1ccccc1-c1ccccc1,12.0,-4.6,1.3,2.4%,8.9
Cc1ccc(Nc2c(-c3cccnc3)nc3ccc(Br)cn23)cc1,-1.8,0.0,-1.4,-2.5%,/
CC(CC(=O)O)CC(=O)Nc1cccc([N+](=O)[O-])c1 (stereo not given),1.9,-0.6,1.1,1.1%,/
CC(NC(=O)c1ccc(F)cc1)c1ccccc1 (stereo not given),14.1,-2.0,5.1,3.2%,-1.4
CC(C)(C)c1ccc(S(=O)(=O)N2CCC(c3nc4ccc(Cl)cc4[nH]3)CC2)cc1,0.0,7.1,-13.2,60.4%,-20.1
O=C1C=CC(=O)N1c1ccc(OC(F)F)cc1,-4.8,/,0.8,-8.0%,-19.4
Cc1[nH]c2ccccc2c1/C=C/C(=O)c1ccccc1,31.4,-3.6,-1.9,6.1%,-4.1
CCCn1c(=S)[nH]c2cc(C(=O)N3CCN(c4ccccc4OC)CC3)ccc2c1=O,1.2,-0.5,-6.7,-1.7%,-20.2
CCCCc1cc(=O)oc2cc(C)cc(OC(C)C(=O)NC(Cc3c[nH]c4ccc(O)cc34)C(=O)O)c12 (stereo not given),-6.0,3.9,/,/,/
Cc1ccc(N(CC(=O)NC2CCCC2)C(=O)CNC(=O)c2cccs2)c(C)c1,-4.6,-0.6,/,/,/
CC(=O)NS(=O)(=O)c1ccc(NC(=O)CCC(=O)Oc2ccc(C)cc2)cc1,-6.0,0.4,/,/,/
O=C(CC1C(=O)N(c2ccccc2)C(=O)N1Cc1ccco1)Nc1ccccc1 (stereo not given),-0.1,-0.1,-11.1,-7.2%,/
COc1ccc(OCCC(=O)N2CCN(C)CC2)cc1,-10.2,2.8,/,/,/
O=c1oc2cc(OCc3nn[nH]n3)ccc2c2c1CCCC2,-7.1,-4.2,2.8,-0.7%,-43.3
CCC(CO)NC(=O)c1cc2c(s1)CCC2 (stereo not given),-13.4,-2.1,8.5,5.3%,-22.1
CC1(C)N=C(c2cccc(F)c2)C(=O)N1,/,-3.8,-4.6,-5.1%,-25.1
O=C(Nc1nc2c(Br)cc(Br)cc2c(=O)s1)C1CCC1,-0.7,-0.3,/,-5.1%,/
Cn1c(=O)c2[nH]c(NCC3CCCO3)nc2n(-c2ccccc2)c1=O (stereo not given),-16.0,-0.4,10.0,-0.5%,33.3
Cc1c(OCC(=O)NCCN2CCOCC2)ccc2c3c(c(=O)oc12)CCC3,-0.8,-4.5,/,/,/
Cc1cc(OCc2n[nH]c(=S)n2-c2ccccc2)ccc1Cl,0.5,3.6,/,/,/
COC(=O)C1=C(C(=O)OC)C(c2cc(Br)ccc2O)c2sc(=O)[nH]c2S1 (stereo not given),-3.6,/,-0.1,7.3%,-14.3
CCOC(=O)c1sc(NC(=O)CCCn2nc([N+](=O)[O-])cc2C)c(C(=O)OCC)c1C,1.1,0.9,6.8,5.7%,-30.3
Cc1cccc(C)c1NC(=O)C(=O)c1cn(C)c2ccccc12,-5.2,2.2,3.9,6.5%,/
COc1ccc(NC(=O)c2cc([N+](=O)[O-])ccc2N2CCCCC2)cc1,-1.9,4.3,/,/,/
COc1ccc(CNC(=O)c2c[nH]c3ccccc3c2=O)cc1,-5.3,-2.1,/,/,/
O=c1cc(CN2CCc3ccccc32)c2ccc(O)cc2o1,-7.4,/,-3.3,9.6%,/
CCCCCCn1cc(C(=O)O)c(=O)c2cc(F)c(N3CCN(C)CC3)cc21,88.8,-3.5,/,/,/
COc1ccc(-c2cc3c(=O)n(CC(=O)NC4CCN(Cc5ccccc5)CC4)ncn3n2)cc1,-0.7,-1.8,-9.3,-4.0%,6.5
COC(=O)c1ccc(NC(=O)c2ccccc2-c2ccccc2C(=O)O)cc1,31.5,-0.8,4.9,3.2%,/
Cc1onc(-c2ccccc2Cl)c1C(=O)OCC(=O)Nc1cccc(S(=O)(=O)N(C)C)c1,-3.5,/,8.4,-0.8%,/
CCCN(CCC)C(=O)CP(=O)(c1ccccc1)c1ccccc1,/,-1.9,4.3,-7.6%,6.8
CCOc1ccc(CN(C(=O)c2cc3ccccc3oc2=O)C2CCS(=O)(=O)C2)cc1 (stereo not given),-7.3,-3.6,/,-0.8%,/
CCOC(=O)C(Sc1ncn[nH]1)c1ccccc1 (stereo not given),6.9,2.6,-3.0,-1.8%,13.4
CC(C)(C)c1cc(NC(=O)c2ccc(OC3CCCC3)cc2)no1,-6.5,1.8,-20.9,-1.3%,-24.3
CCC(C)/C(C)=N/NC(=O)CSc1nc2ccccc2[nH]1 (stereo not given),-0.3,-2.9,1.6,-1.1%,/
O=C(CSc1nc(O)cc(=O)n1-c1ccc(Cl)c(Cl)c1)Nc1ccc(Cl)cc1Cl,-1.1,6.5,/,/,/
Cc1cc([N+](=O)[O-])nn1Cn1nc([N+](=O)[O-])cc1C,-3.2,/,-0.5,2.3%,/
CCc1c(C(=O)NCCc2ccc(OC)c(OC)c2)[nH]c(C)c1C(C)=O,4.9,/,0.0,-3.5%,8.8
Cc1ccc(C(=O)NCCCNC(=O)c2ccco2)cc1C,-5.4,0.8,/,/,/
CCN1C(=O)CC(N2CCN(c3ccc(C(=O)c4ccccc4)cc3)CC2)C1=O (stereo not given),-4.3,5.8,5.3,2.9%,-13.6

# This is a subset (hit frequency here may not be typical).
